Screens (PubChem BioAssay)
ALR H2O2 inh: blocks human ALR sulfhydryl oxidase activity; P55789; purified ALR, DTT oxidation, H2O2 HRP-luminol luminescence; 3.8% of 290,000 active; inhibition, % (test concentration not listed);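 active means mean and each replicate at 75% or more; inconclusive means only one of the two met; inactive means neither met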;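 further: stock transfer was 7.5 nL into about 7.5 µL; 0% = neutral wells and 100% = wells with inactivated enzyme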
Target sequence (P55789 whole entry, looked up): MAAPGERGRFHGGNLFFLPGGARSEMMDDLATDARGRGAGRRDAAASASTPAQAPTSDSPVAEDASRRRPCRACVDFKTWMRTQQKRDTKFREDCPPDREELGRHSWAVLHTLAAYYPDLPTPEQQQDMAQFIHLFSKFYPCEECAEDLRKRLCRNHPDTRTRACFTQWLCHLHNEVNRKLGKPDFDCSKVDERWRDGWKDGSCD
Beta cell apopt: beta cell apoptosis inhibition | protection from apoptosis, % (concentration not given with the values) | 0.8% of 300,000 active | INS-1E cytokine-induced death, ATP luminescence, 48 h; percent of positive-control rescue, neutral wells zero;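 active means all replicates at 75% or more, or half of them and the mean; inconclusive means half reach 75% but not the mean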;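 further: 0% = cytokine-treated negative control wells and 100% = positive control rescue; higher means more ATP so stronger rescue from cytokine killing; wells of about 40 µL received 100 nL stock; the first replicate is given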
RanGTP-Impb inh: inhibitors of RanGTP-importin-beta interaction, primary screen, biochemical, FRET, CFP-Ran, YFP-importin-beta, homogeneous; inhibition, % (no concentration beside the values); AID 2216; 1.1% of 300,000 active; cell-free CFP-Ran/YFP-importin-beta FRET ratio;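 active means most replicates above 15%; inconclusive means exactly half above 15%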;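 further: 0% = DMSO wells and 100% = Ran loaded with GDP instead of GTP; wells of about 40 µL received 100 nL stock; the first replicate is given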
AF4-AF9 inh: MLL-AF4/AF9 protein interaction inhibition | P42568 | AlphaScreen, biotin-AF4 peptide binding to FLAG-AF9 | inhibition, % at 10 µM | 0.47% of 350,000 active | AID 651704;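 active means every replicate reaching a set inhibition limit, whatever the replicate mean, cut at about 25% in these data; inconclusive means mean inhibition reaches that limit but some replicates miss it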;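 further: 0% = plate neutral control median and 100% = total signal loss; the record names both 10 and 1 µM as test concentration; the first replicate is given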
Target sequence (P42568 whole entry, looked up): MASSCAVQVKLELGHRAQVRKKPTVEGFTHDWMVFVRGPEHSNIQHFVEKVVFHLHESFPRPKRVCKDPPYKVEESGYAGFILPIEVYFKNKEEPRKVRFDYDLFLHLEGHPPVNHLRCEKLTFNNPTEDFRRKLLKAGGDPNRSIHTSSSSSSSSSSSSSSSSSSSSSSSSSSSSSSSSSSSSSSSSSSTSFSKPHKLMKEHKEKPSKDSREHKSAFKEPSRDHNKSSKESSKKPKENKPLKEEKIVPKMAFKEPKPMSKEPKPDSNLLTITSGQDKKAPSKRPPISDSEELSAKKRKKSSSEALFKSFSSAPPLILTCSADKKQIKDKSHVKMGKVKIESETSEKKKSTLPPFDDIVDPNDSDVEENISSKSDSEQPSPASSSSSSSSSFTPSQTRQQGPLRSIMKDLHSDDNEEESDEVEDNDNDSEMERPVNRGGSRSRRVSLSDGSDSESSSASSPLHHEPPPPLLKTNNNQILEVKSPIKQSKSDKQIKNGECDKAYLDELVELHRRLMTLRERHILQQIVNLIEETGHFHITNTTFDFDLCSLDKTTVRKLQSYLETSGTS
Ecoli rRNA inh: inhibits bacterial ribosomal RNA function over humanized ribosomes; E. coli WT GFP vs humanized-ribosome RFP mutants, fluorescence, 24 h; active compounds read low; DMSO median 0, no signal -100; GFP signal change (wild-type ribosome), % (test concentration not listed); 1.6% of 350,000 active;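 active means significant combined selectivity score with lowered wild-type GFP, culture density cut under 30%, mutant RFP and density less affected; inactive means any of these conditions unmet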; further: one replicate is shown; some compounds called inactive have numbers as strong as hits
T cruzi inh: T. cruzi replication inhibition. T. cruzi beta-gal in NIH3T3, luminescence, 90 h. inhibition, % (test concentration not listed). 1.4% of 300,000 active. AID 1885;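 active means mean inhibition across valid replicates above about 55%, limit read from the data; inconclusive means mean below that limit but half or more replicates reach it; inactive means mean below it, under half of replicates reach it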;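 further: signal also drops with host cell toxicity which is not excluded here; 0% = plate median of DMSO wells and 100% = zero luminescence signal; higher percent means less beta-gal luminescence so fewer parasites; stock transfer was 50 nL into about 50 µL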
Calb FLC: C. albicans growth modulation with fluconazole. C. albicans CaCi-2 (fluconazole-resistant clinical isolate) + fluconazole, Alamar Blue growth, 48 h. growth inhibition, % (concentration not given with the values). 0.57% of 300,000 active. AID 1979;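 active means most replicates above 75%; inconclusive means exactly half above 75%; inactive means most below 75%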;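 further: all wells also contain fluconazole at 8 µg/ml as a sub-toxic cotreatment; 0% = median of DMSO wells and 100% = median of geldanamycin control wells; wells of about 8 µL received 7.5 nL stock; the first replicate is given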
FGF22 binding: binders of recombinant human FGF22 by thermal shift; calls only at 9.99 µM; 1.5% of 340,000 active; AID 651658; SYPRO orange fluorescence; percent of sucrose octasulfate shift, DMSO zero;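 active means melting point raised past a set limit in the mean and every replicate; inconclusive means no clear call; three in four hits are not shown here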
Target sequence (Q9HCT0 whole entry, looked up): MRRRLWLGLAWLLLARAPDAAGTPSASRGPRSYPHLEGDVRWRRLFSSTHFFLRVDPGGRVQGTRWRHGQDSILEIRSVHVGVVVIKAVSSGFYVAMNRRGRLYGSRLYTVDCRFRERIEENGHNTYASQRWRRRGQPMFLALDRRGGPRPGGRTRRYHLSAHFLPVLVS
Ecoli rRNA inh OD600: second read-out of Ecoli rRNA inh, no call of its own (marks repeat the call); OD600 change, %; measured here: OD600 growth;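 optical density of the mix in the first replicate; 0 = DMSO median and -100 = no signal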
Ecoli rRNA inh RFP: also measured in Ecoli rRNA inh; calls as there; RFP signal change, %; measured here: RFP humanized mutant strains;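 first replicate; 0 = DMSO median and -100 = no signal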
An asterisk follows results filed as active.

Screening COc1cccc(CN(C(=O)c2ccccc2)C2CCS(=O)(=O)C2)c1 (stereo not drawn) returned ALR H2O2 inh -2, Beta cell apopt 2, RanGTP-Impb inh -2.3, AF4-AF9 inh -0.1, Ecoli rRNA inh -4, T cruzi inh -11, Calb FLC 1, FGF22 binding inactive, Ecoli rRNA inh OD600 -18 and Ecoli rRNA inh RFP -7.9.
`CCNC(=O)Cn1c(=O)c(=O)n(Cc2ccccc2)c2ccc(Cl)cc21` gave ALR H2O2 inh -9, RanGTP-Impb inh -3.7, T cruzi inh 4 and Calb FLC 18.
`C=CCn1c(Oc2ccc(C(=O)OC)cc2)nc2c1c(=O)n(C)c(=O)n2C` gave ALR H2O2 inh -2, Beta cell apopt -8, RanGTP-Impb inh 6.2, T cruzi inh -23 and Calb FLC -5.
CC(C)Oc1ccc(C(=O)Nc2cccc3cccnc23)cc1 was read as ALR H2O2 inh -5, Beta cell apopt 1, RanGTP-Impb inh -1.9, AF4-AF9 inh -1.7, Ecoli rRNA inh -22*, T cruzi inh 8, Calb FLC -14, FGF22 binding inactive, Ecoli rRNA inh OD600 -11* and Ecoli rRNA inh RFP -0.8*.
For CN1CCN(C(=O)c2cc(Br)cn2C)CC1 the results were Beta cell apopt -2, RanGTP-Impb inh -4.5, AF4-AF9 inh -1.8, Ecoli rRNA inh 6, T cruzi inh -9, Calb FLC 0, FGF22 binding inactive, Ecoli rRNA inh OD600 1 and Ecoli rRNA inh RFP -2.2.
For COc1cc2c(c(OC)c1CC=C(C)C)C[C@H](c1ccc(O)cc1O)CO2 the results were ALR H2O2 inh -17, Beta cell apopt -5, RanGTP-Impb inh -2.0, AF4-AF9 inh 9.3, Ecoli rRNA inh -27, T cruzi inh 10, Calb FLC -1, FGF22 binding inactive, Ecoli rRNA inh OD600 -26 and Ecoli rRNA inh RFP 3.8.
`O=C(C1=C[C@@H](c2ccc3c(c2)OCO3)C[C@@H](OCCCCO)O1)N1CCN(Cc2ccc3c(c2)OCO3)CC1` gave ALR H2O2 inh -4, Beta cell apopt 1, RanGTP-Impb inh -3.8, AF4-AF9 inh 0.8, Ecoli rRNA inh -2, T cruzi inh 3, Calb FLC -28, FGF22 binding inactive, Ecoli rRNA inh OD600 -14 and Ecoli rRNA inh RFP 3.8.
For COc1cccc(CN2CCN(C(=O)c3cccc(OC)c3)CC2)c1 the results were ALR H2O2 inh -6, Beta cell apopt -2, RanGTP-Impb inh 0.9, AF4-AF9 inh -4.1, Ecoli rRNA inh 4, T cruzi inh 7, Calb FLC 2, FGF22 binding inactive, Ecoli rRNA inh OD600 14 and Ecoli rRNA inh RFP -0.8.
`CC1CC(C)CN(S(=O)(=O)N2CCCC(C(=O)NCCCN3CCOCC3)C2)C1` (stereo not drawn) gave ALR H2O2 inh 1, Beta cell apopt 0, RanGTP-Impb inh 1.2, AF4-AF9 inh 2.2, Ecoli rRNA inh 5, T cruzi inh 4, Calb FLC -7, FGF22 binding inactive, Ecoli rRNA inh OD600 5 and Ecoli rRNA inh RFP -0.8.
`COc1cccc(NC(=O)NNC(=O)c2ccc3c(c2)NC(=O)C(C)(C)O3)c1` gave ALR H2O2 inh 7, Beta cell apopt 6, RanGTP-Impb inh 1.9, AF4-AF9 inh -0.6, Ecoli rRNA inh -6, T cruzi inh -15, Calb FLC -11, FGF22 binding inactive, Ecoli rRNA inh OD600 4 and Ecoli rRNA inh RFP 0.5.
`NS(=O)(=O)c1ccc(CCNC(=O)CNC(=O)c2ccccc2F)cc1` gave Beta cell apopt 2, RanGTP-Impb inh -0.1, AF4-AF9 inh -1.6, Ecoli rRNA inh 1, T cruzi inh -2, Calb FLC -2, FGF22 binding inactive, Ecoli rRNA inh OD600 7 and Ecoli rRNA inh RFP -2.7.
`Cc1ccc(/C=N/NC(=O)Nc2ccccc2)o1` gave ALR H2O2 inh -21, Beta cell apopt 1, RanGTP-Impb inh -0.3, AF4-AF9 inh 4.4, Ecoli rRNA inh 11, T cruzi inh -7, Calb FLC 14, FGF22 binding inactive, Ecoli rRNA inh OD600 12 and Ecoli rRNA inh RFP -1.5.
`Cc1ccc(/C=N/n2c(C)n[nH]c2=S)o1` gave Beta cell apopt -10, RanGTP-Impb inh -1.2, T cruzi inh -5 and Calb FLC 23.
For NC(=S)Nc1nccc(-c2cccs2)n1 the results were ALR H2O2 inh -3, Beta cell apopt 3, RanGTP-Impb inh 4.0, AF4-AF9 inh -11, Ecoli rRNA inh 7, T cruzi inh 5, Calb FLC 5, FGF22 binding inactive, Ecoli rRNA inh OD600 9 and Ecoli rRNA inh RFP -0.2.
For O=[N+]([O-])c1ccc2c(c1)C(O)n1ncnc1S2 (stereo not drawn) the results were ALR H2O2 inh -9, Beta cell apopt 1, RanGTP-Impb inh 7.6, AF4-AF9 inh -1.2, Ecoli rRNA inh 11, T cruzi inh -8, Calb FLC 10, FGF22 binding inactive, Ecoli rRNA inh OD600 13 and Ecoli rRNA inh RFP 2.3.
Cc1c(NC(=O)CN2C(=O)NC3(CCCCC3)C2=O)c(=O)n(-c2ccccc2)n1C was read as ALR H2O2 inh -1, Beta cell apopt -5, RanGTP-Impb inh 2.2, AF4-AF9 inh 0.3, Ecoli rRNA inh 24, T cruzi inh 9, Calb FLC 18, FGF22 binding inactive, Ecoli rRNA inh OD600 10 and Ecoli rRNA inh RFP 4.3.
`CCNC(=S)NNC(=O)c1ccc(OC)cc1` gave ALR H2O2 inh 23, Beta cell apopt 1, RanGTP-Impb inh 7.9, AF4-AF9 inh 0.1, Ecoli rRNA inh 5, T cruzi inh -13, Calb FLC 35, FGF22 binding inactive, Ecoli rRNA inh OD600 3 and Ecoli rRNA inh RFP -1.2.
Screening Cc1csc2ncc(C(=O)N3c4ccccc4CC3C)c(=O)n12 (stereo not drawn) returned ALR H2O2 inh -3, Beta cell apopt -7, RanGTP-Impb inh 0.8, AF4-AF9 inh 3.1, Ecoli rRNA inh -5, T cruzi inh -12, Calb FLC -10, FGF22 binding inactive, Ecoli rRNA inh OD600 -10 and Ecoli rRNA inh RFP -11.
`Nc1ccc(C(=O)N2N=C(c3ccc(F)cc3)CC2(O)C(F)(F)F)cc1` (stereo not drawn) gave ALR H2O2 inh 8, Beta cell apopt -15, RanGTP-Impb inh -2.3, AF4-AF9 inh 0.9, Ecoli rRNA inh -8, T cruzi inh -5, Calb FLC -18, FGF22 binding inactive, Ecoli rRNA inh OD600 -14 and Ecoli rRNA inh RFP -19.
Screening CC(C)CC1NC(=S)N(C2CCCCC2)C1=O (stereo not drawn) returned ALR H2O2 inh -9, Beta cell apopt 0, RanGTP-Impb inh -2.7, T cruzi inh -30 and Calb FLC -2.
`COc1ccc(Cc2nc(N)nc(N)n2)cc1` gave ALR H2O2 inh -3, Beta cell apopt -4, RanGTP-Impb inh 0.1, Ecoli rRNA inh 4, T cruzi inh -23, Calb FLC 0, Ecoli rRNA inh OD600 7 and Ecoli rRNA inh RFP -1.8.
`COCCCNC(=S)N/N=C/c1ccc(OC)c(Br)c1` gave ALR H2O2 inh 15, Beta cell apopt 3, RanGTP-Impb inh -12, AF4-AF9 inh 2.8, Ecoli rRNA inh 14, T cruzi inh 8, Calb FLC 6, Ecoli rRNA inh OD600 14 and Ecoli rRNA inh RFP 1.6.
CC(/C=C/c1ccccc1F)=N\NC(=O)c1cccc(F)c1 was read as Beta cell apopt 17, RanGTP-Impb inh -1.4, AF4-AF9 inh 3.3, Ecoli rRNA inh -36, T cruzi inh 18, Calb FLC -15, FGF22 binding inactive, Ecoli rRNA inh OD600 -45 and Ecoli rRNA inh RFP -12.
For O=c1oc(/C=C/c2ccco2)nc2sc3c(c12)CCC3 the results were Beta cell apopt -6, RanGTP-Impb inh 0.9, T cruzi inh -12 and Calb FLC 3.

Filtered by structure, those above with bromine
For CN1CCN(C(=O)c2cc(Br)cn2C)CC1 the results were Beta cell apopt -2, RanGTP-Impb inh -4.5, AF4-AF9 inh -1.8, Ecoli rRNA inh 6, T cruzi inh -9, Calb FLC 0, FGF22 binding inactive, Ecoli rRNA inh OD600 1 and Ecoli rRNA inh RFP -2.2.
`COCCCNC(=S)N/N=C/c1ccc(OC)c(Br)c1` gave ALR H2O2 inh 15, Beta cell apopt 3, RanGTP-Impb inh -12, AF4-AF9 inh 2.8, Ecoli rRNA inh 14, T cruzi inh 8, Calb FLC 6, Ecoli rRNA inh OD600 14 and Ecoli rRNA inh RFP 1.6.

(listing goes on)
CC(C)CNS(=O)(=O)c1ccc(CCC(=O)NC2CCCC2)cc1 was read as ALR H2O2 inh -6, Beta cell apopt -6, RanGTP-Impb inh 3.0, AF4-AF9 inh -1.3, Ecoli rRNA inh 17, T cruzi inh 19, Calb FLC -1, FGF22 binding inactive, Ecoli rRNA inh OD600 9 and Ecoli rRNA inh RFP -5.7.
Screening Cc1ccc(OCc2ccc(C(=O)Nc3nccs3)o2)cc1C returned ALR H2O2 inh -24, Beta cell apopt -10, RanGTP-Impb inh 1.3, T cruzi inh -8 and Calb FLC -3.
CCN1CCN(C(c2cccs2)C(C)NC(=O)c2ccccc2)CC1 (stereo not drawn) was read as ALR H2O2 inh 7, Beta cell apopt -2, RanGTP-Impb inh 1.0, AF4-AF9 inh -5.1, Ecoli rRNA inh 2, T cruzi inh -6, Calb FLC 1, FGF22 binding inactive, Ecoli rRNA inh OD600 7 and Ecoli rRNA inh RFP 0.2.
`O=C(NNC(=O)c1cc(C(F)(F)F)cc(C(F)(F)F)c1)c1ccc(Cl)cc1` gave ALR H2O2 inh -20, Beta cell apopt 4, RanGTP-Impb inh -6.4, AF4-AF9 inh 1.4, Ecoli rRNA inh -7, T cruzi inh -14, Calb FLC -3, FGF22 binding inactive, Ecoli rRNA inh OD600 -2 and Ecoli rRNA inh RFP -2.0.
For O=C1N(Cc2cccc(Cl)c2)C[C@@H]2C[C@@H](c3ccccn3)N3CCC[C@@]123 the results were ALR H2O2 inh -22, Beta cell apopt -9, RanGTP-Impb inh 2.1, AF4-AF9 inh 5.4, Ecoli rRNA inh 7, T cruzi inh -2, Calb FLC 1, FGF22 binding inactive, Ecoli rRNA inh OD600 4 and Ecoli rRNA inh RFP 4.7.
`C=CCn1c(SCC(=O)Nc2nc3ccccc3s2)nc(O)c(CC)c1=O` gave ALR H2O2 inh 99*, Beta cell apopt -7, RanGTP-Impb inh -2.8, AF4-AF9 inh 0.4, Ecoli rRNA inh -27*, Calb FLC 1, FGF22 binding inactive, Ecoli rRNA inh OD600 -11* and Ecoli rRNA inh RFP -7.1*.
`O=C(COC(=O)C12CC3CC(CC(Br)(C3)C1)C2)N1CCOCC1` gave ALR H2O2 inh 3, Beta cell apopt -3, RanGTP-Impb inh inconclusive, AF4-AF9 inh -1.4, Ecoli rRNA inh 5, T cruzi inh -12, Calb FLC 11, FGF22 binding inactive, Ecoli rRNA inh OD600 -3 and Ecoli rRNA inh RFP 0.0.
For O=C(COc1ccccc1)N1CCN=C1SCc1ccccc1 the results were Beta cell apopt -11, RanGTP-Impb inh -2.0, AF4-AF9 inh -2.8, Ecoli rRNA inh -5, T cruzi inh 4, Calb FLC 35, FGF22 binding inactive, Ecoli rRNA inh OD600 -1 and Ecoli rRNA inh RFP -1.6.

Not all compounds are listed (hit frequency here may not be typical).
